Assay outcomes as filed in PubChem.
GLA inh pH 4.5 – alpha-galactosidase A (human) inhibition, pH 4.5; P06280; purified enzyme, 4-MU-alpha-Gal fluorescence, pH 4.5; activity change, negative = inhibition, % at 105 µM; 230,000 tested, under 10 active; inconclusive = small, poorly fitted or top-dose-only inhibition, or a rising curve; inactive = flat fitted curve, though single readings scatter; no compound was filed as active;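 further: 0% = full activity with enzyme and -100% = basal without enzyme; dose as in the result columns while the protocol names 77 µM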
Target sequence (P06280 whole entry, looked up): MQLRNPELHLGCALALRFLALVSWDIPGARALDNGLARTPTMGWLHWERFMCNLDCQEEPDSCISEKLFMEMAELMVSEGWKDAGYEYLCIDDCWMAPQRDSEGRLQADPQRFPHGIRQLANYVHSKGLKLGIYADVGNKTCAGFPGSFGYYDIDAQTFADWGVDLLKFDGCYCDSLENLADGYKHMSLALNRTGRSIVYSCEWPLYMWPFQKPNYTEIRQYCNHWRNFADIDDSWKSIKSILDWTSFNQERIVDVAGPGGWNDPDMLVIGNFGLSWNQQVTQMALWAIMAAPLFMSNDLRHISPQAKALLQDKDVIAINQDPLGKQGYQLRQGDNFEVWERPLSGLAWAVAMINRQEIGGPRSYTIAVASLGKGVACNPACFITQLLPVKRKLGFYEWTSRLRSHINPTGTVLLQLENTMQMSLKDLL
miR-21 FLuc – miR-21 reporter, rising signal. HeLa miR-21 FLuc reporter, luciferase, 48 h. Potency, µM (highest dose often 38.3 µM), without a hit: top-dose reporter change, positive = more light. 340,000 tested, under 10 active. AID 2288; active = well fitted rising curve with a large enough effect; inconclusive = small, poorly fitted or top-dose-only effect; inactive = no such curve, though single readings can be large or run the other way;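 further: % of control where 0% means no effect; miR-21 action dims this reporter so a rising signal means less miR-21 action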
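HeLa cells endogenously expressing miR-21, stably carrying CMV-driven firefly luciferase with a downstream miR-21 binding site, 2000 cells/well. Titrations up to approximately 40 uM, 48 hours; luciferase luminescence read.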
Rango complex inh – Rango-importin beta binding inhibition. AID 540263. Q14974. Potency, µM (titrated, usually from 92.2 µM), for inactives: top-dose inhibition of complex formation. Rango CFP/YFP FRET sensor + importin beta, 45 min. 0.031% of 340,000 active; active = rising FRET ratio curve, often small or poorly fitted; inconclusive = mostly compound fluorescence or quenching in the first reads; inactive = flat curves in all reads;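 further: potency means the concentration at half of the fitted maximal effect; 0% = DMSO wells and 100% = buffer wells lacking importin beta; nearly all actives have a fitted effect of over 15% in size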
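Inhibition scored from the CFP 486 nm/YFP 530 nm FRET ratio 45 min after adding 0.125 microM importin beta to 50 nM Rango biosensor preincubated 5 min with compound (room temperature, PBS with DTT, Tween-20, BSA). No-importin wells as positive control.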
Rango dissoc inh – inhibition of RanGTP-driven Rango-importin beta dissociation | AID 540253 | Potency, µM (top dose mostly 46.1 µM), for the others: at the highest dose activity change, negative = inhibition | Biochemical FRET Rango-importin beta, RanGTP-induced dissociation | 0.071% of 340,000 active; active means falling FRET ratio curve, often poorly fitted, with flat reads before Ran was added; inconclusive means other falling curves, or compound fluorescence or quenching; inactive means flat or rising ratio curve;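 further: potency means the concentration at half of the fitted maximal effect; % of control where 0% means no effect; nearly all actives have a fitted effect of over 45% in size; -100% = wells without RanGTP and RCC1; the record marks most hits as doubtful in a second field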
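Compounds sat 5 min at room temperature with 0.1 uM Rango biosensor plus 0.25 uM importin beta, then FRET pre-read. RanGTP-RCC1 (0.6 uM Ran, 2mM GTP, 0.2 uM RCC1) added for 45 min, and the CFP/YFP post-read measured blocked complex dissociation.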
* hit, by the source's call; ? = inconclusive; / = not tested or not shown.

Order of results: Rango dissoc inh	GLA inh pH 4.5	miR-21 FLuc	Rango complex inh
- CC(Sc1nncn1-c1ccccc1)C(=O)Nc1cccc([N+](=O)[O-])c1 (centres undefined)
    -8.6%	-11.5	-1.5%	-2.9%
- Cc1cc(C)c2nc(SCC(=O)N3CC(=O)Nc4ccccc43)c(C#N)cc2c1
    ?	1.0	21.9%	-1.8%
- COc1ccc2c(c1)nc(SCC(O)c1ccccc1)n2C (centres undefined)
    12.7%	7.7	-13.8%	3.6%
- Cc1ccc(CNC(=O)CN(c2cccc([N+](=O)[O-])c2)S(=O)(=O)c2ccccc2)cc1
    2.7%	1.9	-0.7%	4.9%
- Nc1nc(C23CC4CC(CC(C4)C2)C3)[nH]c(=O)n1
    0.0%	1.2	-5.2%	-5.7%
- CCNc1nc(Cl)nc(NC2CCCCC2)n1
    21.7%	/	-36.2%	4.3%
- O=C(N/N=C/c1cccs1)c1cncc(Br)c1
    0.5%	-0.4	-0.6%	1.7%
- O=C(/C=C/Nc1ccccc1F)c1ccc(Br)cc1
    -0.9%	-3.9	-63.6%	3.8%
- Cc1ccc(N=C(NOCc2ccc(Cl)cc2Cl)c2nonc2N)c(C)c1
    -16.7%	0.5	13.3%	5.0%
- COc1ccc(C)cc1NC(=O)C/C(C)=N/NC(=O)Cc1cccc2ccccc12
    3.4%	/	0.4%	0.2%
- O=c1cc2c(nn1Cc1ccccc1)-c1ccccc1CC2
    0.1%	-6.3	-11.5%	1.5%
- Cc1cc(C[n+]2cc(Cl)ccc2N)c2ncccc2c1
    -6.4%	-7.7	16.6%	1.9%
- CN(C(=O)Nc1ccccc1)C1CCCc2ccccc21 (centres undefined)
    0.2%	/	-34.9%	6.2%
- CCn1c(CSCc2ccc(Cl)cc2)n[nH]c1=S
    -10.7%	-5.6	0.9%	-0.6%
- CCn1c(SCC(=O)Nc2cc(C)on2)nnc1-c1cccnc1
    -2.7%	1.2	-0.3%	-4.3%
- O=C(CCCN1C(=O)c2cccc3cccc(c23)C1=O)N1CCN(c2ccccc2)CC1
    6.1%	-3.4	-5.5%	3.7%
- CCc1ccc2nc(NC(=O)CCCc3cccs3)sc2c1
    -1.0%	4.7	-47.4%	0.9%
- Clc1ccc(OCCCN2CCCCC2)c(Br)c1
    15.3%	2.8	-49.6%	0.9%
- O=C(Nc1ccccc1)Nc1ccc2ncoc2c1
    3.6%	5.0	-43.7%	-0.4%
- N#CC1=C(S)N(c2ccccc2)C(c2ccc(-c3ccccc3Cl)o2)NC1=O (centres undefined)
    8.7%	-9.2	-3.2%	0.2%
- COCc1cc(CN2CCN(Cc3ccsc3)C(CCO)C2)ccc1OC (centres undefined)
    -9.0%	2.4	-42.3%	5.1%
- CN(c1ccc([N+](=O)[O-])cc1/C=N/NC(=O)COc1ccccc1)C1CCCCC1
    2.7%	-0.7	-8.7%	-2.3%
- O=C(CN1CCN(c2ccc(F)cc2)CC1)Nc1ccccc1Br
    -16.8%	/	-14.5%	-3.5%
- Cc1cccc(-n2nnc3c(=O)n(Cc4ccccn4)cnc32)c1
    -9.7%	6.3	-6.8%	3.5%
- CCCCC(=O)NNC(=S)NC(=O)c1ccc([N+](=O)[O-])cc1
    7.2%	-13.3	-3.5%	-0.1%
- CCCOC(=O)CSC1=C(C#N)C(c2ccc3c(c2)OCO3)CC(=O)N1 (centres undefined)
    -5.1%	0.3	23.4%	0.7%
- CCC(C)NC(=O)CO/N=C/c1ccccc1OC(F)F (centres undefined)
    -14.2%	2.5	-17.4%	0.0%
- Cc1c(S(=O)(=O)N2CCN(C(c3ccccc3)c3ccccc3)CC2)c(=O)n(C)c(=O)n1C
    9.0%	-9.3	-0.5%	6.5%
- O=C(NCc1ccco1)C(C(=O)c1ccccc1)n1ccccc1=O (centres undefined)
    1.0%	0.3	0.1%	-3.5%
- O=C(O)CN1C(=O)C(=O)N(Cc2ccc(Cl)cc2Cl)C1=O
    2.6%	/	-6.9%	3.2%
- CC(=O)NC1(C(F)(F)F)N=C(c2ccccc2)NC1=O (centres undefined)
    -0.3%	2.5	-10.1%	0.1%
- Cc1ccccc1Nc1nc(N)nc(COC(=O)c2cccn2C)n1
    -2.0%	-11.0	-53.3%	-0.2%
- CCOC(=O)/C(C#N)=C/c1cn(CCC(=O)O)nc1-c1cccc(Cl)c1
    ?	-3.6	-3.0%	-0.6%
- COc1ccc(-n2nnc3c(=O)n(CC(=O)N4CCCCC4)cnc32)cc1
    -7.5%	-4.2	5.1%	-3.0%
- Cc1ccsc1C(=O)OCC(=O)N1CCOCC1
    -0.2%	3.0	-32.1%	-1.9%
- Cc1ccc(NC(=O)CN(C)C(=O)c2ccc(NC(=O)CC3SC(N4CCCC4)=NC3=O)cc2)cc1 (centres undefined)
    0.1%	/	/	-1.0%
- CCN(CC(=O)Nc1c(F)cccc1F)C(=O)CCc1nc2sc3c(c2c(=O)[nH]1)CCCC3
    ?	/	/	?
- CNC(=S)N(CCO)Cc1cc2cc3c(cc2[nH]c1=O)OCO3
    -3.1%	/	-2.2%	?
- S=C(Nc1ccccc1)Nc1cccc(Br)c1
    -9.6%	4.0	2.2%	1.8%
- COc1ccc(C(=O)Nc2cccc(/C(C)=N\NC(=O)c3ccoc3C)c2)cc1OC
    ?	/	-39.8%	2.9%
- O=c1oc(-c2cccc(C(F)(F)F)c2)nn1-c1ccc(C(F)(F)F)cn1
    14.7%	-24.5	-8.0%	-3.4%
- C(=C\c1ccccc1)/C=N/N1CCN(c2ccccn2)CC1
    5.8%	4.6	-31.7%	1.4%
- OC(COCc1ccc(Cl)cc1)CN1CCc2ccccc2C1 (centres undefined)
    -1.7%	-2.1	-3.1%	-2.8%
- O=c1oc2cc(Oc3ccc(C(F)(F)F)cc3[N+](=O)[O-])ccc2c2c1CCCC2
    -16.0%	0.6	4.6%	-0.4%
- Cc1cc(NC(=O)COC(=O)CCNS(=O)(=O)c2cccc(C(F)(F)F)c2)no1
    11.2%	3.3	-1.9%	2.0%
- O=C(Nc1ccc2c(c1)OCCO2)C1CCCN(S(=O)(=O)Cc2ccccc2)C1 (centres undefined)
    -4.0%	-0.9	-18.3%	?
- CCn1nc(C(=O)OCC(=O)NCC(C)C)c2ccccc2c1=O
    -1.4%	6.9	1.6%	1.5%
- CCC/C=N/Nc1nc2ccccc2s1
    -9.4%	9.1	-51.8%	-0.3%
- COc1ccc(-c2nnn(CC(=O)c3c[nH]c4ccccc34)n2)cc1OC
    3.3%	0.5	5.8%	4.7%
- CN(C)N1C(=O)CC(C)(c2ccc([N+](=O)[O-])cc2)C1=O (centres undefined)
    1.1%	/	/	1.6%
- N#Cc1ccc(N2Cc3ccccc3C2=NC(=O)c2cccs2)cc1
    6.3%	8.0	-74.8%	1.2%
- Cc1ccc(-c2nnc(Sc3nc4ccccc4o3)c3ccccc23)cc1
    -9.0%	1.9	28.9%	5.0%
- O=S(=O)(c1cc(Cl)ccc1Br)N1CCOCC1
    -0.3%	1.3	-21.9%	1.5%
- COCCCC1CCN(Cc2nc(Cc3ccccc3Cl)no2)CC1
    4.4%	6.9	-4.7%	-0.9%
- Cc1ccc2nsnc2c1S(=O)(=O)Nc1ccccc1C(=O)O
    17.2%	/	-0.8%	-1.6%
- COCCN1C(=O)c2ccccc2C(C(=O)NCC2CCCO2)C1c1c[nH]c2ccccc12 (centres undefined)
    10.0%	5.8	-3.9%	0.4%
- CCOc1cc2[nH]c(=S)n(C(C)C)c(=O)c2cc1OCC
    -8.6%	-4.5	14.2%	-6.4%
- COc1cccc(/C=N/NC(=O)C(=O)N2CCCC2)c1OC
    -8.3%	-8.3	0.0%	1.8%
- O=C(NCC1CCN(Cc2ccccc2F)CC1)Nc1ccccc1F
    -20.4%	/	0.1%	-1.9%
- Cc1ccc(NC(=O)c2cccc(S(=O)(=O)N3CCCC3)c2)nc1
    -1.1%	/	/	1.1%

(cont.)
Order of results: Rango dissoc inh	GLA inh pH 4.5	miR-21 FLuc	Rango complex inh
- CC(C)c1ccc(OCC(=O)NC2CC(C)(C)NC(C)(C)C2)c(Br)c1
    5.6%	/	-3.9%	0.1%
- COc1ccc(CC(=O)NCC2CCCN(Cc3ccc(OC(F)(F)F)cc3)C2)cc1 (centres undefined)
    7.0%	/	6.5%	3.2%
- O=C(CSc1nnc(C2CC2)n1CC1CCCO1)Nc1cccc(Cl)c1 (centres undefined)
    -14.2%	/	-1.5%	0.3%
- Cn1cnnc1SCC(=O)c1ccco1
    2.4%	-4.5	-0.5%	-2.5%
- CCOC(=O)c1c(C)[nH]c(C(=O)NCc2ccco2)c1C
    /	4.6	-39.2%	/
- Cc1cc(C(=O)Nc2cc(C)n(Cc3ccc(Cl)cc3)n2)no1
    -4.9%	-1.0	-4.9%	2.2%
- CC1CC(C)CN(CCCNC(=O)COc2cc(=O)n(C)c3ccccc23)C1 (centres undefined)
    -11.8%	-1.6	3.1%	-0.4%
- COc1ccc(/C=N/N=C2/NC(=O)C(c3ccccc3)S2)c(OC)c1 (centres undefined)
    1.3%	-7.9	-0.2%	-0.7%
- COC(=O)c1[nH]nc2c1C(=O)N(C1CCCCC1)C2=O
    11.1%	1.1	-5.4%	-0.3%
- COc1cc(C(=O)Oc2cccc(C=O)c2)cc(OC)c1OC
    14.8%	0.9	-0.8%	7.8%
- O=C(NC1CC1)c1ccc2c(c1)NC(=O)c1ccccc1S2
    /	0.2	-0.7%	/
- CCOc1ccccc1CN1CCN(C2CCN(c3ccccc3F)CC2)CC1CCO (centres undefined)
    9.3%	0.5	2.3%	3.0%
- CC/C(=N\O)c1ccc(O)c(OC)c1
    4.4%	1.7	0.1%	6.1%
- Cc1oc(-c2cccc(Cl)c2)nc1CS(=O)(=O)CC(=O)NCCN1CCCC1
    5.2%	/	-5.7%	2.1%
- COc1cc2c(cc1OC)CN(C(=O)c1cccs1)CC2
    17.8%	3.6	-20.9%	-3.3%
- Cc1nnc(SCC(=O)NC2CCCC2)n1C(C)C
    -14.5%	/	-0.1%	5.0%
- C=CCn1c(SCC(=O)NC)nc2sc3c(c2c1=O)CCC3
    -7.7%	-1.6	-8.9%	7.3%
- COc1cc(OC)cc(C(=O)N2CCN(Cc3ccccc3[N+](=O)[O-])CC2)c1
    -6.9%	3.3	-8.8%	-6.1%
- COc1ccc(NC(=O)CCC(=O)c2ccc(F)cc2)cc1
    -1.0%	/	/	3.8%
- Cc1ccc([N+](=O)[O-])cc1N=C(c1cccc([N+](=O)[O-])c1)N1CCOCC1
    16.5%	-1.3	-0.2%	2.0%
- c1ccc2cc(OCCOCCOc3ccc4ccccc4c3)ccc2c1
    0.4%	-12.8	-6.3%	1.8%
- CC(C)(C)c1ccc(C(=O)Nc2cccc3ncccc23)cc1
    -13.6%	/	0.7%	?
- CC(=O)Nc1ccc(S(=O)(=O)N2CCN(CCCOc3cc(C)ccc3C)CC2)cc1
    -17.9%	-8.6	22.1%	2.9%
- COc1ccc(-c2nc(N)n(C(=O)c3ccco3)n2)cc1
    5.4%	-0.3	-7.6%	-0.3%
- CSCc1ccc(C(=O)N2CCC(N3CCC(C(=O)NC(C)C)CC3)CC2)o1
    -10.2%	/	-3.4%	-1.2%
- CN1CCN(NC(=O)/C=C/c2ccc(Br)cc2)CC1
    10.2%	/	-12.4%	4.2%
- COc1ccc(-c2cc(-c3ccc(C)cc3)n[nH]2)c(O)c1
    -8.2%	/	-47.5%	0.6%
- Cc1cc(C)c(S(=O)(=O)N2CCCOC2CNC(=O)C(=O)NCCc2c[nH]c3ccccc23)c(C)c1 (centres undefined)
    -12.8%	6.0	25.4%	1.0%
- CC1CCCC(NC(=O)Cn2cc3c(n2)CCCCC3)C1C (centres undefined)
    8.3%	-23.1	-3.3%	5.9%
- O=C(CCS(=O)(=O)c1ccc(Cl)cc1)NC1CCCC1
    6.6%	/	/	0.0%
- CN(C)C(=O)C1C2NC(=S)N(c3cccc(Cl)c3)C1(C)Oc1ccc(Cl)cc12 (centres undefined)
    2.0%	-0.3	10.5%	0.3%
- COC(=O)c1ccc(Nc2c([N+](=O)[O-])ccc3nonc23)cc1
    2.6%	/	0.2%	-0.7%
- c1ccc(CNCc2ccco2)cc1
    -7.6%	/	0.6%	0.9%
- O=C1CCC(=O)N1Cc1c(Cl)cccc1Cl
    -11.8%	/	4.6%	6.0%

Not all compounds are listed (hit frequency here may not be typical).
